rRNA inh HTS = reduced GFP signal of wild-type E. coli, primary screen, bacterial rRNA inhibitor project, GFP/RFP fluorescence, OD600, single point | E. coli WT GFP vs humanized-ribosome RFP mutants, 24 h; active compounds read low; DMSO median 0, no signal -100 | GFP signal change (wild-type ribosome), % (no concentration beside the values) | hit rate 1.6% among 350,000 | AID 720706, 2013;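 active means significant combined selectivity score with lowered wild-type GFP, culture density cut under 30%, mutant RFP and density less affected; inactive means any of these conditions unmet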; further: one replicate is shown; some compounds called inactive have numbers as strong as hits
HNF4A DNA FP = change in binding of human HNF4A to DNA, primary screen, biochemical, fluorescence polarization, FITC-DNA. Hepatocyte nuclear factor 4-alpha (Homo sapiens), P41235. 1 h. activity change, % at 10 µM. hit rate 0.3% among 360,000; in the data active means activity change above about 30%, passing the limit was not always enough;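 further: controls were the assay level and a saturating level of protein; the project sought stronger binding though the title names inhibitors; some compounds called inactive have numbers as strong as hits; positive values seem to mean higher polarization but the record does not say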
Target sequence (P41235 whole entry, looked up): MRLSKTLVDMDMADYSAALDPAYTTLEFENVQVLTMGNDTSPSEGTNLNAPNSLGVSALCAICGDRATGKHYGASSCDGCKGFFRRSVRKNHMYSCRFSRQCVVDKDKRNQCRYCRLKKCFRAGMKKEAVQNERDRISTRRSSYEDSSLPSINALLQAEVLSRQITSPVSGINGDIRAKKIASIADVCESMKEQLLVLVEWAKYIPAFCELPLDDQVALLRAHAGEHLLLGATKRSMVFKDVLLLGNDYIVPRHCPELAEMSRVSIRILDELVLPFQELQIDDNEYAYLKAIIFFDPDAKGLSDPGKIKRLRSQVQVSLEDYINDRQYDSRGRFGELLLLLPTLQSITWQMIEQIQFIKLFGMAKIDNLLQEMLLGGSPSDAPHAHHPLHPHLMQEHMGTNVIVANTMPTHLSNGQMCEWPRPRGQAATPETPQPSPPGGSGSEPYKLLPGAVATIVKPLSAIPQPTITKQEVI
FGF22 binding = binders of human FGF22 protein, primary screen, FGF22 synaptogenesis inhibitor project, biophysical, thermal shift, single point; Fibroblast growth factor 22 (Homo sapiens), Q9HCT0; recombinant FGF22 thermal shift, SYPRO orange fluorescence; percent of sucrose octasulfate shift, DMSO zero; calls only at 9.99 µM; hit rate 1.5% among 340,000;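 active means melting point raised past a set limit in the mean and every replicate; inconclusive means no clear call; three in four hits are not shown here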
Beta2AR agonist = beta2AR agonists driving receptor internalization, primary screen, cell-based, FAP fluorogen, flow cytometry; Am2.2-beta2AR cells; reference of the scale not given here; response, % (no concentration beside the values); hit rate 0.43% among 340,000; AID 504454, 2011;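 active means response above a set limit, near 3 SD of response in nonfluorescent compounds, cut at about 42% in these data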;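 further: stock transfer was 100 nL into about 11 µL; a reference agonist was the positive control; negative values mostly stem from fluorescent compounds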
UCH37 inh = inhibitors of human UCH37 deubiquitinase, primary screen, biochemical, Ub-AMC cleavage, fluorescence. Ubiquitin carboxyl-terminal hydrolase isozyme L5 (Homo sapiens), Q9Y5K5. purified proteasome/UCH37. inhibition, % (concentration not given with the values). hit rate 0.33% among 330,000;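 active means mean of two replicates above 20%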;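 further: 0% = compound-free wells with enzyme and 100% = wells lacking proteasome; stock transfer was 100 nL into about 20 µL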
Target sequence (Q9Y5K5 whole entry, looked up): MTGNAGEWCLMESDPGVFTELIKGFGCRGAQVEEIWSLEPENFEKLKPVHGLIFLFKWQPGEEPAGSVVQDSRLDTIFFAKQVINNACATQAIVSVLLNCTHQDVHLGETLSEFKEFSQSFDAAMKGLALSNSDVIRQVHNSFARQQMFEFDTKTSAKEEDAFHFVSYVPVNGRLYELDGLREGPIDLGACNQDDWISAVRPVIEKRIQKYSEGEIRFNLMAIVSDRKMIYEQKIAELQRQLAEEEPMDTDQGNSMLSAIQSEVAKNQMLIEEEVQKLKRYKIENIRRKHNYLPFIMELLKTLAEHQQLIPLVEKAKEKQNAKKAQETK
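Material: Human UCH37 enzyme supplied as purified proteasome complex | Schedule: 30 min preincubation with enzyme, 25 min cleavage at room temperature | Detection: AMC fluorescence 355/460 nm | Measure: % inhibition of Ub-AMC cleavage fluorescence | Controls: Wells without proteasome as full block, compound-free enzyme plus substrate as uninhibited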
ALR inh = inhibitors of human ALR sulfhydryl oxidase, primary screen, biochemical, H2O2 detection, HRP-luminol luminescence, single point; hit rate 3.8% among 290,000; AID 485317, 2010; inhibition, % (concentration not given with the values); purified ALR, DTT oxidation; FAD-linked sulfhydryl oxidase ALR (Homo sapiens), P55789;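 active means mean and each replicate at 75% or more; inconclusive means only one of the two met; inactive means neither met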;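 further: stock transfer was 7.5 nL into about 7.5 µL; 0% = neutral wells and 100% = wells with inactivated enzyme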
Target sequence (P55789 whole entry, looked up): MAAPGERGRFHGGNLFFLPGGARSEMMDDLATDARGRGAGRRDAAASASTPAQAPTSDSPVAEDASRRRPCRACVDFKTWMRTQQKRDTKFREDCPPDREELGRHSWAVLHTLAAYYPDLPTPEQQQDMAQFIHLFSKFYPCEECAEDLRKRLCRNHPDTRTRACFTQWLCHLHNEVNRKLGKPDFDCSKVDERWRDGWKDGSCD
Ecoli growth = E. coli growth inhibition, primary screen, OD600; OD600 absorbance (concentration not given with the values); hit rate 0.21% among 330,000; Escherichia coli growth, 23 h; active compounds read low;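 active means OD600 absorbance below the run mean of sample wells minus 3.6 SD, in any replicate, cut at about 0.56 in these data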;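 further: stock transfer was 300 nL into about 60 µL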
rRNA inh HTS OD600 = second read-out of rRNA inh HTS, no call of its own (marks repeat the call); OD600 change, %; measured here: OD600 growth;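 optical density of the mix in the first replicate; 0 = DMSO median and -100 = no signal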
rRNA inh HTS RFP = recorded beside rRNA inh HTS, whose call it bears; RFP signal change, %; measured here: RFP humanized mutant strains;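 first replicate; 0 = DMSO median and -100 = no signal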
Starred values were filed as active, the others as inactive.

How did COc1cccc(C(=O)C2CN(c3ccccc3)CC2c2ccc(Cl)cc2)c1 (stereo unspecified) do in these assays?
rRNA inh HTS: 0; HNF4A DNA FP: 4.7; FGF22 binding: inactive; UCH37 inh: -11; ALR inh: 97*; Ecoli growth: 0.68; rRNA inh HTS OD600: 13; rRNA inh HTS RFP: 33

What do the screens show for `Nc1nc(C(F)(F)F)cc(=O)[nH]1`?
rRNA inh HTS: 4; HNF4A DNA FP: 3.6; FGF22 binding: inactive; Beta2AR agonist: -7; UCH37 inh: 2.2; ALR inh: 5; Ecoli growth: 0.65; rRNA inh HTS OD600: 2; rRNA inh HTS RFP: 4.9

What do the screens show for `Cc1nc(-c2nc(-c3c(C(=O)NNC(=O)Nc4cccc(Cl)c4)noc3C)cs2)cs1`?
rRNA inh HTS: 20; HNF4A DNA FP: -0.4; FGF22 binding: inactive; Beta2AR agonist: 0; UCH37 inh: 7.5; ALR inh: -3; Ecoli growth: 0.72; rRNA inh HTS OD600: 2; rRNA inh HTS RFP: 6.4

What do the screens show for `CCCC(=O)Nc1nnc(SCC(=O)Nc2nc(C)cs2)s1`?
rRNA inh HTS: 8; HNF4A DNA FP: 3.6; FGF22 binding: inactive; Beta2AR agonist: -1; UCH37 inh: 1.2; ALR inh: -3; Ecoli growth: 0.74; rRNA inh HTS OD600: 3; rRNA inh HTS RFP: -0.5

Results for COc1ccc(CCNC(=O)c2ccccc2C(=O)NCCc2ccc(OC)cc2)cc1 ?
HNF4A DNA FP: -1.3; FGF22 binding: inactive; Beta2AR agonist: 0; UCH37 inh: -2.6; ALR inh: -6; Ecoli growth: 0.68

What do the screens show for `CC(=O)c1ccc(-c2cccc3nccn23)cc1`?
rRNA inh HTS: 4; HNF4A DNA FP: 1.0; FGF22 binding: inactive; rRNA inh HTS OD600: 9; rRNA inh HTS RFP: 0.0

How did Cc1ccccc1C(=O)/C=C1/SCC(=O)N1C do in these assays?
rRNA inh HTS: 9; HNF4A DNA FP: 38*; FGF22 binding: inactive; Beta2AR agonist: -19; UCH37 inh: 10; ALR inh: 43; Ecoli growth: 0.67; rRNA inh HTS OD600: -3; rRNA inh HTS RFP: 18

How did CC1(C)NC(=O)N(CCCOc2ccc3c(c2)CCC3)C1=O do in these assays?
HNF4A DNA FP: 4.9; Beta2AR agonist: 8; UCH37 inh: 1.3; ALR inh: 2; Ecoli growth: 0.65

Results for Cn1ncc(Cl)c1C(=O)Nc1ccc(CN2CCCCC2)cc1 ?
rRNA inh HTS: 3; HNF4A DNA FP: -5.3; FGF22 binding: inactive; Beta2AR agonist: 1; UCH37 inh: 2.2; ALR inh: 9; Ecoli growth: 0.73; rRNA inh HTS OD600: 10; rRNA inh HTS RFP: 0.0

Results for CCN(CC)C(=O)C1CCCN(C/C=C/c2ccccc2)C1 (stereo unspecified) ?
HNF4A DNA FP: 9.2; Beta2AR agonist: -2; UCH37 inh: 3.2; ALR inh: -3; Ecoli growth: 0.71

How did Cc1cccc(/C(N)=N/OC(=O)c2cccs2)c1 do in these assays?
HNF4A DNA FP: -3.8; Beta2AR agonist: 3; UCH37 inh: 2.2; ALR inh: inconclusive; Ecoli growth: 0.67

Results for COc1ccc(SCC(=O)Nc2ccc(N3CCN(C)CC3)c(F)c2)cc1 ?
rRNA inh HTS: 8; HNF4A DNA FP: -4.0; FGF22 binding: inactive; Beta2AR agonist: -2; UCH37 inh: -0.3; ALR inh: -5; Ecoli growth: 0.66; rRNA inh HTS OD600: 1; rRNA inh HTS RFP: 1.4

How did Cc1csc2nc(CNC(=O)CCC(=O)O)cn12 do in these assays?
rRNA inh HTS: 4; HNF4A DNA FP: 0.0; FGF22 binding: inactive; Beta2AR agonist: -3; UCH37 inh: 2.5; ALR inh: -11; Ecoli growth: 0.72; rRNA inh HTS OD600: 12; rRNA inh HTS RFP: -3.6

How did CCOc1ccccc1-n1c(C)nc2cc(C(=O)O)ccc21 do in these assays?
rRNA inh HTS: 4; HNF4A DNA FP: -3.3; FGF22 binding: inactive; Beta2AR agonist: 5; UCH37 inh: 4.8; ALR inh: -8; Ecoli growth: 0.7; rRNA inh HTS OD600: 1; rRNA inh HTS RFP: 5.3

Results for CCOC(=O)c1c(C2COc3ccccc3O2)csc1N (stereo unspecified) ?
HNF4A DNA FP: -0.6; Beta2AR agonist: -7; UCH37 inh: 3.7; ALR inh: 26; Ecoli growth: 0.71

What do the screens show for `Cc1cccn2cc(CCNC(=O)Cc3cccs3)nc12`?
rRNA inh HTS: 4; HNF4A DNA FP: 2.8; FGF22 binding: inactive; Beta2AR agonist: -4; UCH37 inh: 1.9; ALR inh: -1; Ecoli growth: 0.69; rRNA inh HTS OD600: 1; rRNA inh HTS RFP: -5.4

How did COc1ccc(N2CCOCC2)c(NC(=O)c2cccc3ccccc23)c1 do in these assays?
rRNA inh HTS: -26; HNF4A DNA FP: 0.2; FGF22 binding: inactive; Beta2AR agonist: 6; UCH37 inh: -0.3; ALR inh: -37; Ecoli growth: 0.68; rRNA inh HTS OD600: -25; rRNA inh HTS RFP: -5.4

What do the screens show for `Cc1ccc(S(=O)(=O)NCCC(=O)NCCc2ccc(S(N)(=O)=O)cc2)cc1C`?
rRNA inh HTS: 0; HNF4A DNA FP: 3.1; FGF22 binding: inactive; Beta2AR agonist: 3; UCH37 inh: 3.8; ALR inh: -3; Ecoli growth: 0.72; rRNA inh HTS OD600: 5; rRNA inh HTS RFP: -2.0

What do the screens show for `NS(=O)(=O)c1ccc(CCNCc2ccccc2OCc2ccc(F)cc2)cc1`?
rRNA inh HTS: 3; HNF4A DNA FP: -2.5; FGF22 binding: inactive; Beta2AR agonist: 1; UCH37 inh: 0.9; Ecoli growth: 0.62; rRNA inh HTS OD600: 1; rRNA inh HTS RFP: 1.1

Results for CCCCCCCCS(=O)C1CS(=O)(=O)CC1O (stereo unspecified) ?
rRNA inh HTS: 17; HNF4A DNA FP: 2.0; FGF22 binding: inactive; Beta2AR agonist: -5; UCH37 inh: 0.9; ALR inh: -6; Ecoli growth: 0.65; rRNA inh HTS OD600: -6; rRNA inh HTS RFP: 2.7

The last two records of the section before lead into the next:
What do the screens show for `NS(=O)(=O)c1ccc(CCNCc2ccccc2OCc2ccc(F)cc2)cc1`?
rRNA inh HTS: 3; HNF4A DNA FP: -2.5; FGF22 binding: inactive; Beta2AR agonist: 1; UCH37 inh: 0.9; Ecoli growth: 0.62; rRNA inh HTS OD600: 1; rRNA inh HTS RFP: 1.1

Results for CCCCCCCCS(=O)C1CS(=O)(=O)CC1O (stereo unspecified) ?
rRNA inh HTS: 17; HNF4A DNA FP: 2.0; FGF22 binding: inactive; Beta2AR agonist: -5; UCH37 inh: 0.9; ALR inh: -6; Ecoli growth: 0.65; rRNA inh HTS OD600: -6; rRNA inh HTS RFP: 2.7

What do the screens show for `CCOc1ccc(NC(=O)c2cc(OC)nc3ccccc23)cc1`?
rRNA inh HTS: 5; HNF4A DNA FP: -2.2; FGF22 binding: inactive; Beta2AR agonist: 18; UCH37 inh: 1.1; ALR inh: 1; Ecoli growth: 0.67; rRNA inh HTS OD600: 2; rRNA inh HTS RFP: 0.7

How did CCN1CCN(c2cc(C)c3cc(NC(=S)N4CCOCC4)ccc3n2)CC1 do in these assays?
rRNA inh HTS: 0; HNF4A DNA FP: 2.5; FGF22 binding: inactive; Beta2AR agonist: -7; UCH37 inh: 1.0; Ecoli growth: 0.67; rRNA inh HTS OD600: 2; rRNA inh HTS RFP: -2.8

Results for COc1n[nH]c(C(=O)Nc2cc(Cl)ccc2Cl)c1[N+](=O)[O-] ?
rRNA inh HTS: 5; HNF4A DNA FP: 5.0; FGF22 binding: inactive; Beta2AR agonist: 7; UCH37 inh: 2.9; ALR inh: 49; Ecoli growth: 0.67; rRNA inh HTS OD600: 3; rRNA inh HTS RFP: 0.4

Results for COc1ccc(CC(=O)NCCCSc2ccccc2)cc1OC ?
rRNA inh HTS: 9; HNF4A DNA FP: 2.5; FGF22 binding: inactive; Beta2AR agonist: 1; UCH37 inh: -0.3; ALR inh: -3; Ecoli growth: 0.67; rRNA inh HTS OD600: 15; rRNA inh HTS RFP: 0.6

How did Cc1ccc(C(=O)Nc2ccccc2C(=O)N2CCOCC2)cc1[N+](=O)[O-] do in these assays?
HNF4A DNA FP: 1.2; FGF22 binding: inactive; Beta2AR agonist: 0; UCH37 inh: 3.7; Ecoli growth: 0.72

How did O=C1N[C@@H](c2ccccc2)COC(=O)[C@@H](Cc2ccc(F)cc2)C/C=C\C[C@@H]1CC(=O)N(CCO)Cc1ccccc1 do in these assays?
rRNA inh HTS: 11; HNF4A DNA FP: 5.1; FGF22 binding: inactive; Beta2AR agonist: 11; UCH37 inh: -1.1; ALR inh: 2; rRNA inh HTS OD600: 7; rRNA inh HTS RFP: 7.8

Results for COC(=O)c1nc(N)sc1C ?
HNF4A DNA FP: -2.1; Beta2AR agonist: -9; UCH37 inh: -0.3; ALR inh: -20; Ecoli growth: 0.68

What do the screens show for `Cn1cnnc1SCC(=O)Nc1ccc(F)cc1`?
rRNA inh HTS: 1; HNF4A DNA FP: -0.4; FGF22 binding: inactive; Beta2AR agonist: -2; UCH37 inh: 0.8; Ecoli growth: 0.71; rRNA inh HTS OD600: 3; rRNA inh HTS RFP: 0.9

What do the screens show for `c1ccc(-c2nnc(SCCC3OCCCO3)o2)cc1`?
HNF4A DNA FP: -2.8; Beta2AR agonist: -2; UCH37 inh: 2.3; ALR inh: -17; Ecoli growth: 0.7

Results for O=C(Cc1cccc(NC(=O)C2CCCN(C(=O)C3CCC3)C2)c1)Nc1ccc(C(=O)N2CCCCC2)cc1 (stereo unspecified) ?
rRNA inh HTS: 5; HNF4A DNA FP: -0.1; FGF22 binding: inactive; Beta2AR agonist: 0; UCH37 inh: -0.3; Ecoli growth: 0.68; rRNA inh HTS OD600: 1; rRNA inh HTS RFP: -0.4

How did Cc1ccc(NC(=O)Cn2nc(C(=O)O)c3ccccc3c2=O)c([N+](=O)[O-])c1 do in these assays?
rRNA inh HTS: 2; HNF4A DNA FP: 2.0; FGF22 binding: inactive; Beta2AR agonist: 11; UCH37 inh: 2.4; ALR inh: -2; Ecoli growth: 0.69; rRNA inh HTS OD600: 8; rRNA inh HTS RFP: 5.5

Results for Cc1cc(/C=C(\C#N)C(=O)Nc2ccccc2F)c(C)[nH]1 ?
rRNA inh HTS: 6; HNF4A DNA FP: 9.3; FGF22 binding: inactive; Beta2AR agonist: 3; UCH37 inh: -128; ALR inh: -5; Ecoli growth: 0.74; rRNA inh HTS OD600: 6; rRNA inh HTS RFP: 17

How did COc1ccc2cc(C(=O)O)ccc2c1 do in these assays?
rRNA inh HTS: -5; HNF4A DNA FP: -3.8; Beta2AR agonist: 4; UCH37 inh: 1.0; ALR inh: -78; Ecoli growth: 0.69; rRNA inh HTS OD600: 2; rRNA inh HTS RFP: -3.8

How did CCN(CC)C(=O)C1=C(C)N(CCCOC)C(=O)C(CC(=O)NCc2cccc3ccccc23)C1 (stereo unspecified) do in these assays?
rRNA inh HTS: 6; HNF4A DNA FP: -0.6; FGF22 binding: inactive; rRNA inh HTS OD600: 8; rRNA inh HTS RFP: 7.3

Bioassay records: PubChem BioAssay, several laboratories

Not all compounds are listed; rates above refer to the full screens.
